# eIF4H inh = inhibitors of RNA binding by human eIF4H; AID 2012; 290,000 tested, 0.94% active; eIF4H fluorescence polarization binding assay; inhibition, % at 35 µM; Q15056;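 active means 50% or more with normal probe brightness, or confirmed in later tests; about a fifth of its hits are not listed in these tables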;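 further: calls also rest on retests at 20 µM and on dose response follow-up; 0% = protein and probe with vehicle and 100% = probe without protein; strong numbers were not always called active; many hits fall short of the cut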
# Rce1 inhib = yeast Ras-converting enzyme inhibition; Q03530; yeast membranes, quenched prenylated peptide cleavage fluorescence; calls only; 290,000 tested, 0.27% active;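 active means fall in fluorescence gain of 50% or more versus controls, with final raw signal at or below 3038400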;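 further: plate controls were neutral control wells for no effect and wells lacking membranes for full effect; tested at 10 µM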
# Target sequence (Q03530 whole entry, looked up): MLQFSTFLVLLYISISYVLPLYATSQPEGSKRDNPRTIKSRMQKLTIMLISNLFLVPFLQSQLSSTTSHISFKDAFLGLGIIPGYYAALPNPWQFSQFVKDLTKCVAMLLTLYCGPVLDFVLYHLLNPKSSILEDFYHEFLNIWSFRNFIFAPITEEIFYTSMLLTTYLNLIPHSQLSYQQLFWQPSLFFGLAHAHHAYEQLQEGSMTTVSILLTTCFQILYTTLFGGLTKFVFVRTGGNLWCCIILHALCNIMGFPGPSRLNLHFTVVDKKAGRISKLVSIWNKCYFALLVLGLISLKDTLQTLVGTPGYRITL
# HIV Env fusion = inhibitors of HIV Env-mediated cell fusion. inhibition, % at 12.3 µM. HeLa-JRFL Env/CEM21 cell fusion, luciferase. 360,000 tested, 1.1% active. AID 651610;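 active means mean replicate inhibition score of at least 50 and every replicate individually at or above 50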;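 further: 0% = plate neutral controls and 100% = maraviroc near 300 nM; one replicate is shown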
# PABP FP inh = blocks human PABP binding to poly(A) RNA; fluorescence polarization; 290,000 tested, 1% active; inhibition, % at 35 µM; P11940;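 active means 50% or more with normal probe brightness, or confirmed in later tests; about a fifth of its hits are not listed in these tables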;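 further: calls also rest on retests at 20 µM and on dose response follow-up; controls were probe without protein and protein plus probe with vehicle; some compounds called inactive have numbers as strong as hits; many hits fall short of the cut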
# MT1-MMP act inh = blocks activation of human MT1-MMP; HT1080 RFP-PRO-GFP cells, GFP/RFP ratio fluorescence, overnight; percent of plate control window, DMSO zero; P50281; GFP/RFP ratio change, % at 20 µM; 360,000 tested, 0.061% active; AID 651647;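 active means GFP/RFP ratio change of at least 30% with cell ATP level not reduced by more than half and red fluorescence within 50% of control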; further: strong numbers were not always called active
#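 system = RFP-PRO-GFP reporter HT1080 cells | dosing = 20 µM single dose, 1% DMSO | timing = overnight cell settling, then overnight compound exposure, 37 °C, 5% CO2 | read-out basis = GFP/RFP fluorescence ratio | controls = DMSO and RFP-L50D-GFP cell wells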
# CSC inhib = blocks cancer stem cells. 300,000 tested, 1.1% active. cancer stem cell-like cells viability, luminescence. inhibition, % at 7.5 µM. AID 2717;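 active means mean at 75% or more and at least half the replicates too; tested in HMLE shEcad cells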;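 further: 0% = median of negative and 100% = median of positive control wells; the first replicate is given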
# Yeast UUG start = modulators of start codon recognition fidelity in yeast; activity score, % at 18.7 µM; AID 602363; 350,000 tested, 0.13% active; S. cerevisiae UUG-firefly luciferase reporter, luminescence/redox ratio;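 active means replicate mean at a twofold rise or more, about +100% in these data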;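 further: firefly luciferase made from a UUG start codon reports start codon fidelity; reporter light over untreated wells divided by growth signal over untreated wells; some hits fall short of that in this replicate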
# MT1-MMP act inh RFP = recorded beside MT1-MMP act inh, whose call it bears; RFP signal change, %; measured here: RFP expression control read;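 0 = vehicle wells; hits needed this value within 50% of zero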
# * marks the source's active call; other numbers are inactive results; i = inactive; . = not tested or not shown. Not a hit list; about 2.9% have a hit in one of these screens.
Molecule,Yeast UUG start,MT1-MMP act inh,Rce1 inhib,HIV Env fusion,CSC inhib,eIF4H inh,PABP FP inh,MT1-MMP act inh RFP
Cc1ccc(-c2n[nH]c(=O)c3ccccc23)cc1S(=O)(=O)Nc1ccc(F)cc1,-16,4,i,21,-1,0,-6,-10
CCn1c(C)nc2cc(C(=O)NNC(=O)CCC3CCCC3)ccc21,.,3,i,6,-18,-10,1,6
CC(C)(C)N(Cc1ccccc1)C(=O)CN1C(=O)NC2(CCCCCC2)C1=O,2,-7,.,.,-14,.,.,-6
Cc1nc(SCC(=O)Nc2ccc(F)cc2)c(C#N)c(C)c1CC(=O)c1ccc(Br)cc1,.,-19,i,.,-2,-2,-9,-10
CCCn1c(N)c(N(CCOC)C(=O)c2ccccc2F)c(=O)[nH]c1=O,-9,2,i,-2,-3,-8,-2,3
CC(=O)Nc1cc(-c2ccc(N3CCN(C)CC3)cc2)cn2c(-c3ccc(F)cc3)cnc12,-10,-11,.,-34,.,.,.,-1
NC(=O)C1CCN(CC(=O)c2c[nH]c3ccc(F)cc23)CC1,.,-5,i,-18,-2,-5,-2,-1
N#CN(CC(N)=O)c1nc(N2CCCCC2)nc(N2CCCCC2)n1,26,3,i,.,-1,-5,-1,0
Cc1ccc(C(CNS(=O)(=O)c2ccc(F)cc2)N2CCN(C)CC2)cc1 (configuration not stated),-4,-5,i,-1,.,.,.,-1
Cc1ccc(N(CC(=O)O)S(C)(=O)=O)cc1Cl,-17,-4,i,.,-5,-6,-15,1
CSc1ccc(CNCCCSc2ncccn2)cc1,-20,4,i,-1,-3,4,5,-1
O=C(C1CCC(=O)N1C1CCCCC1)N1CCN(c2ccc(F)cc2)CC1 (configuration not stated),6,-4,i,.,5,-9,-12,0
CCOc1ccc(NC(=O)c2cccc(NC(C)=O)c2)cc1S(=O)(=O)N1CCCC1,0,3,.,8,.,.,.,-6
COc1ccc(S(=O)(=O)NC(CC(=O)NCc2ccco2)C(C)C)cc1 (configuration not stated),.,0,i,.,4,5,-2,4
Cc1cc(=O)[nH]c(SCC(=O)N(CCC#N)c2ccccc2)c1C#N,5,2,i,-11,-8,-4,2,7
C=CCN1C(=O)c2ccc(C(=O)N(C)CC(=O)Nc3ccccc3Br)cc2C1=O,8,-2,i,-229,-7,0,3,-1
O=C(NCCc1c[nH]c2ccccc12)/C(=C\c1cccnc1)NC(=O)c1ccccc1F,.,0,i,5,41,-7,10,0
Cc1ccc(S(=O)(=O)N2CCCC2)cc1[N+](=O)[O-],.,-2,i,-21,-7,-7,-4,4
O=C(Cc1cccs1)Nc1nc(-c2ccc(F)c(F)c2)cs1,-14,-4,i,-6,2,-11,2,-7
CCN(CC)S(=O)(=O)c1ccc2c3c(cccc13)C(=O)N2,1,1,i,12,-10,-1,3,0
FC(F)(F)c1cccc(N2CCN(C(=S)NCC3CCCO3)CC2)c1 (configuration not stated),.,1,i,21,-14,-11,1,-20
COC(=O)c1ccc(NC(=O)C(=O)c2cccn2C)cc1,.,6,.,-79,9,-2,-14,6
COc1ccccc1N(CC(=O)NCCSCc1ccc(Cl)cc1)S(C)(=O)=O,-15,2,i,34,-12,-9,-2,-4
COc1cc(C(C)=O)ccc1OCc1cc(C(=O)N2CCSCC2)no1,-7,2,i,-10,5,6,-8,2
COc1ccc(NC(=O)CCC(=O)c2ccc(-c3ccccc3)cc2)cc1,.,-12,i,.,-2,27,-7,2
COc1ccc(S(=O)(=O)NCc2ccc(C)cc2)cc1,3,-4,i,4,-8,-7,8,1
O=C(Cc1ccc(Cl)cc1)Nc1ccc(N2CCN(C(=O)c3ccco3)CC2)c(Cl)c1,-8,-7,i,.,42,-14,-6,-16
Cc1ccc(C(=O)NNC(=O)COC(=O)COc2ccccc2C#N)cc1,-1,-5,.,-2,.,.,.,1
c1ccc(-c2nnc(SCc3nc4ccccc4[nH]3)n2Cc2ccco2)nc1,-18,3,i,25,-7,8,14,-1
CCOc1ccc(CNC(=O)CCc2cn(C)c3ccccc23)cc1,-4,4,i,-8,-11,11,5,6
C/C=C/C=C\C(=O)Nc1cccc(C2=NOC3(C2)C[C@@H](C(N)=O)N(C(=O)/C(C)=C/C)C3)c1 (some centres not stated),16,-5,i,-2,-13,1,13,0
CCOC(=O)c1sc(NC(=O)CSc2ccccn2)c(C#N)c1C,-24,-3,i,.,-4,-1,2,0
COc1ccc(C(=O)NCC(=O)N2CCC3(CC2)NCCc2[nH]cnc23)cc1,-3,-4,i,12,14,-10,-8,1
CCOC(=O)c1sc(NC(=O)CCN2C(=O)c3cccc([N+](=O)[O-])c3C2=O)c(C(=O)OCC)c1C,-20,11,i,-35,.,3,-6,1
O=C(Cc1coc(-c2ccc(F)cc2)n1)Nc1ccccc1,-6,4,.,.,2,-7,1,-3
Fc1ccc(-n2c(-c3cccs3)nc3nc4ccccc4nc32)cc1,.,15,i,-1,62,-12,19,0
CCOc1[nH]n(-c2ccccc2)c(=O)c1C=Nc1ccc(C)cc1,.,0,i,3,1,2,0,4
CC(C)(C)C1CCc2c(sc(NC(=O)c3ccco3)c2C(N)=O)C1 (configuration not stated),-12,2,.,.,-18,-1,-6,-4
O=C(NCCc1ccccc1)C(=O)NCC1OCCN1S(=O)(=O)c1ccc([N+](=O)[O-])cc1 (configuration not stated),-9,6,i,20,-6,5,-6,-5
COc1cccc(C(=O)N2CCC(C(=O)N3CCN(C)CC3)CC2)c1,-17,-10,i,-13,.,-10,5,-3

# 11 entries from above, sorted by count of non-hydrogen atoms, rising.
Molecule,Yeast UUG start,MT1-MMP act inh,Rce1 inhib,HIV Env fusion,CSC inhib,eIF4H inh,PABP FP inh,MT1-MMP act inh RFP
COc1ccc(S(=O)(=O)NCc2ccc(C)cc2)cc1,3,-4,i,4,-8,-7,8,1
COC(=O)c1ccc(NC(=O)C(=O)c2cccn2C)cc1,.,6,.,-79,9,-2,-14,6
O=C(Cc1coc(-c2ccc(F)cc2)n1)Nc1ccccc1,-6,4,.,.,2,-7,1,-3
CCOc1[nH]n(-c2ccccc2)c(=O)c1C=Nc1ccc(C)cc1,.,0,i,3,1,2,0,4
Fc1ccc(-n2c(-c3cccs3)nc3nc4ccccc4nc32)cc1,.,15,i,-1,62,-12,19,0
COc1cc(C(C)=O)ccc1OCc1cc(C(=O)N2CCSCC2)no1,-7,2,i,-10,5,6,-8,2
COc1ccc(NC(=O)CCC(=O)c2ccc(-c3ccccc3)cc2)cc1,.,-12,i,.,-2,27,-7,2
COc1ccccc1N(CC(=O)NCCSCc1ccc(Cl)cc1)S(C)(=O)=O,-15,2,i,34,-12,-9,-2,-4
O=C(Cc1ccc(Cl)cc1)Nc1ccc(N2CCN(C(=O)c3ccco3)CC2)c(Cl)c1,-8,-7,i,.,42,-14,-6,-16
O=C(NCCc1ccccc1)C(=O)NCC1OCCN1S(=O)(=O)c1ccc([N+](=O)[O-])cc1 (configuration not stated),-9,6,i,20,-6,5,-6,-5
CCOC(=O)c1sc(NC(=O)CCN2C(=O)c3cccc([N+](=O)[O-])c3C2=O)c(C(=O)OCC)c1C,-20,11,i,-35,.,3,-6,1

# (cont.)
Molecule,Yeast UUG start,MT1-MMP act inh,Rce1 inhib,HIV Env fusion,CSC inhib,eIF4H inh,PABP FP inh,MT1-MMP act inh RFP
CCCOc1ccc(C(=O)Nc2ccc(NC(=O)c3cccs3)cc2)cc1,-30,2,i,9,.,6,5,-4
COC(=O)c1ccc(Cl)c(NC(=O)c2cccc([N+](=O)[O-])c2C)c1,-19,4,i,0,0,8,-8,-4
O=C(Nc1ccccc1)c1ccccc1NC(=O)c1ccccc1C(=O)O,-8,0,i,-2,-5,.,.,-3
COc1cc(OC)c2c(c1)C(=O)OC2,-27,-2,i,.,-7,2,2,1
COc1ccc(CCN(Cc2cccs2)S(=O)(=O)c2ccc(S(=O)(=O)N3CCC(C)CC3)cc2)cc1OC,-6,1,i,12,8,-6,20,1
O=C(NCCc1ccccc1)/C(=C/c1ccco1)c1ccccc1,-22,-4,i,11,0,18,12,1
Cc1ccc(S(=O)(=O)N2CCCC(C(=O)NNCC(=O)Nc3cc(F)ccc3F)C2)cc1 (configuration not stated),.,-5,i,-7,-10,0,-1,-4
Cc1ccc(NC(=O)COc2cccc(-n3cnnn3)c2)cc1[N+](=O)[O-],-10,2,i,-7,9,-1,-1,-2
CC(C)Cc1ccc(C(C)NC(=O)Cc2ccc(S(=O)(=O)N3CCOCC3)s2)cc1 (configuration not stated),6,0,i,.,-9,.,.,-10
CCC(=O)NC(c1cccs1)c1cc([N+](=O)[O-])c2cccnc2c1OC (configuration not stated),-3,12,.,0,.,.,.,4
Cc1ccccc1-n1c(SCC(=O)Nc2cccc3ccccc23)nc(O)cc1=O,-14,-1,i,11,-4,-6,3,-2
O=[N+]([O-])c1cc(S(=O)(=O)C(F)(F)F)ccc1Sc1nc2ccccc2[nH]1,.,-6,i,.,113*,-15,-2,-13
Cc1ccc(NC(=O)CN(C)C(=O)CCC(=O)c2cccs2)cc1,.,4,i,-49,3,16,1,4
CCn1c(SCC(=O)Nc2cccc(OC)c2)nnc1-c1ccc(Cl)cc1,-11,3,i,-5,-10,-16,1,-4
CC1=CC(C2CC(=O)N(c3ccc(C)cc3)C2=O)CC2C(=O)N(c3ccc(C)cc3)C(=O)C12 (configuration not stated),.,4,i,-2,-6,2,1,-4
CC(=O)NC(NC(C)=O)c1ccc(Br)cc1,.,18,i,.,-10,-10,-1,3
CCC(C)NC(=O)c1ccccc1SC (configuration not stated),-19,0,i,8,-6,-3,2,2
CSc1nc(N)c(C(=O)N(c2ccccc2)c2ccccc2)s1,-16,-5,.,-1,.,.,.,-3
CCOC(=O)c1ccc(NC(=O)c2nc[nH]c2C(=O)N[C@H](C)c2ccccc2)cc1,-16,-3,i,-1,46,5,25,-1
CCCOc1cccc(C(=O)NC(=S)Nc2cccc(NC(=O)c3ccccc3Cl)c2)c1,-18,1,i,9,12,-6,-11,-5
CC(OC(=O)Cc1coc2cc3c(cc12)CCC3)C(=O)NCc1ccc2c(c1)OCO2 (configuration not stated),-21,0,i,.,-6,3,-9,0
COc1cc(C(=O)Nc2ccc(C(=O)O)cc2)ccc1OC(C)=O,.,1,i,-19,-6,-5,-5,5
COc1cc(OC)cc(C(=O)NCC(=O)OCC(=O)NC2CCCc3ccccc32)c1 (configuration not stated),13,0,.,21,.,.,.,4
O=C(CCCN1C(=O)c2ccccc2C1=O)Nc1cccnc1,-15,3,i,.,-6,13,37,4
O=C(COC(=O)c1cnccn1)c1ccc2c(c1)CCCC2,-23,6,i,-103,0,-10,2,-3
CCOC(=O)C1CCN(C(=O)CNS(=O)(=O)c2cccs2)CC1,-16,7,.,-12,-3,1,8,7
COc1cccc(NC(=O)NCCN2CCCCC2)c1,1,0,i,-12,-8,3,0,-1

# 3 entries already listed, sorted by molecular weight, descending.
Molecule,Yeast UUG start,MT1-MMP act inh,Rce1 inhib,HIV Env fusion,CSC inhib,eIF4H inh,PABP FP inh,MT1-MMP act inh RFP
Cc1ccc(S(=O)(=O)N2CCCC(C(=O)NNCC(=O)Nc3cc(F)ccc3F)C2)cc1 (configuration not stated),.,-5,i,-7,-10,0,-1,-4
O=C(Cc1ccc(Cl)cc1)Nc1ccc(N2CCN(C(=O)c3ccco3)CC2)c(Cl)c1,-8,-7,i,.,42,-14,-6,-16
O=C(C1CCC(=O)N1C1CCCCC1)N1CCN(c2ccc(F)cc2)CC1 (configuration not stated),6,-4,i,.,5,-9,-12,0

# Screening results as filed in PubChem.
